Screens: PubChem BioAssay, National Center for Advancing Translational Sciences (NCATS)
Menin MLL FP FL: displaces fluorescein MLL peptide from human menin. Fluorescence polarization, fluorescein-MLL peptide displacement from menin. FP activity change, % at 61.4 µM. 290,000 tested, under 10 active. AID 1766; inconclusive = falling polarisation curve, or a change in total fluorescence; inactive = total fluorescence flat and polarisation flat or rising; no compound was filed as active; the % refers to the polarisation; negative = inhibition;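 also: % of control where 0% means no effect; inhibitors lower the polarisation; unlabelled MLL peptide was the positive control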
TRPML1 ag: activates the human TRPML1 channel | hit rate 0.12% among 410,000 | TRPML1-expressing cells, Ca2+ dye fluorescence, FDSS; host cell line not named in the record; reference of the full effect not given here | activation, % (concentration not given with the values) | Q9GZU1; in the data active = activation above about 50%; inconclusive = about 30% to 50%; inactive = below about 30%; also: 0% is about no effect; the text of the record puts the active cut at 80%
Target sequence (Q9GZU1 whole entry, looked up): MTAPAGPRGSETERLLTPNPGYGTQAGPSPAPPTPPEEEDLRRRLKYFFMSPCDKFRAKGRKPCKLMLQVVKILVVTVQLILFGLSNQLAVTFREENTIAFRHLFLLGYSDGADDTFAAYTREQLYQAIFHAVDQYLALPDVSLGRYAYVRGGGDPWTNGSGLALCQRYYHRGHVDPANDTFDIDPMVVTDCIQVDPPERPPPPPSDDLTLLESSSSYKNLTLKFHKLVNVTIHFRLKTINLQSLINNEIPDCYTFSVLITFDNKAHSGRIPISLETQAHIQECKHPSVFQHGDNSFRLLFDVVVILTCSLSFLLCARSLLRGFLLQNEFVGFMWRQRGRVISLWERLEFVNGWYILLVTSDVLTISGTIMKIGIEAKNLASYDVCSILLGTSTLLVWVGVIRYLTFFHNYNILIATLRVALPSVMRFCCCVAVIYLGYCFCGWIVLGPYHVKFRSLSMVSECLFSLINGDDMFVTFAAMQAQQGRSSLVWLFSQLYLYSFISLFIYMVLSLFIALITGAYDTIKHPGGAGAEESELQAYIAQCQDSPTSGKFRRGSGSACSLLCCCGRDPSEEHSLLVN
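Calcium fluorescence on an FDSS kinetic reader gave the read-out. Tet-induced TRPML1-DL cells were plated overnight, dye-loaded (Ca8 with quencher, 45-90 min, room temperature, dark), then read 110 s after compound addition, and again 110 s after 4uM final 54-4 (EC80).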
gsp agonist: agonists of gsp mutant (McCune-Albright syndrome). hit rate 0.13% among 340,000. Potency, µM (doses to about 76.9 µM), inactives show at the top dose activation (cAMP increase), actives largely listed as activators. AID 624287. gsp mutant cells, cAMP HTRF, 30 min; control for the full effect not named in the record; active = well fitted activation curve with a large enough effect; inconclusive = small, poorly fitted or top-dose-only effect, or another doubt; inactive = no such curve, though single readings can be large or run the other way; cell line not stated here;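 also: phosphodiesterase inhibitor Ro 20-1724 added with compounds to block cAMP breakdown; potency is read from the fitted curve at half-maximal effect; nearly all actives have a fitted effect of over 60% in size; about a fifth of the inactives were tested at one dose only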
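Cells stably selected in G418 were plated at 2000/well, grown 16-24 hr, then given compounds in DMSO with the PDE inhibitor […] (300 uM solution added) for 30 min at 37C; cAMP was read by HTRF.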
ClpP mod: qHTS Assay for Activators of ClpP; AID 651965, 2013; Potency, µM (titrated, usually from 57.5 µM), for inactives: at the top dose activity change, negative = active; ATP-dependent Clp protease proteolytic subunit (Bacillus subtilis (strain 168)), P80244; purified B. subtilis ClpP, FRET peptide cleavage, 20 min; hit rate 1.9% among 340,000; active = well fitted falling curve with a large enough effect; inconclusive = small, poorly fitted or top-dose-only effect; inactive = no such curve, though single readings can be large or run the other way; also: potency is read from the fitted curve at half-maximal effect; the source files actives as falling curves though it sought activators and does not explain the sign; nearly all actives have a fitted effect of over 65% in size; many hits overshoot -100%
Target sequence (P80244 whole entry, looked up): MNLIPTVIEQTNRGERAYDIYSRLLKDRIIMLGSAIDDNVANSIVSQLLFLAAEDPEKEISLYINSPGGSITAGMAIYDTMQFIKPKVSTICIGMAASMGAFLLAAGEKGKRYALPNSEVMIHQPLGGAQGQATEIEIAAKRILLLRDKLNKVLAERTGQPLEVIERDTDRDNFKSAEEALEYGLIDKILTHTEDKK
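ClpP 10 microg/mL final, pH 8 Tris/KCl buffer with BSA, glycerol, Tween-20; compound pinned in; FRET-FV substrate; RT 20 min; Ex320/Em430; ΔFRET vs ADEP 5.8 microM, DMSO, no enzyme.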
TRPML1 blocker: human mucolipin-1 channel inhibition; activity change, negative = inhibition, % (no concentration beside the values); Q9GZU1; TRPML1-inducible cells, Ca2+ dye fluorescence, FDSS; active compounds read low; inhibition of EC80 agonist-evoked calcium signal; hit rate 0.02% among 390,000; in the data active means activity change below about -50%; inconclusive means about -30% to -50%; inactive means above about -30%;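 also: stimulus is agonist 54-4 at its EC80 concentration; % is scaled to controls: 0 for no effect and ±100 for the full control effect; compound concentration not given in the record; the text of the record puts the active cut at -80%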
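Tet-induced TRPML1-DL cells loaded with Ca8 no-wash calcium dye were read kinetically on FDSS. Compound addition was followed by EC80 agonist 54-4 (4 uM final); inhibition was read over 110 s.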
gsp antag: gsp mutant antagonism. gsp-mutant cells, cAMP HTRF, 30 min; control for the full effect not named in the record. Potency, µM (doses to about 76.9 µM), for inactives: at the top dose activity change, negative = inhibition, hits mostly inhibitors. hit rate 0.4% among 340,000. AID 624288; active = falling curve of any shape with a large fitted effect; inconclusive = falling curve, mostly with a smaller effect; inactive = flat or rising curve; cell line not stated here;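 also: intracellular cAMP measured with PDE inhibitor Ro 20-1724 present during compound exposure; potency is read from the fitted curve at half-maximal effect; % is scaled to controls: 0 for no effect and ±100 for the full control effect; nearly all actives have a fitted effect of over 65% in size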
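Measurement of cellular cAMP by homogeneous time-resolved fluorescence following a 30 min compound exposure at 37C. The PDE inhibitor […] was present throughout; the assay buffer was DPBS with 0.05% BSA and 0.005% Tween 20.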
Numbers without * were called inactive; ? = inconclusive; · = no result given; [ ] = remark or other dose.

SMILES	Menin MLL FP FL	TRPML1 ag	gsp agonist	ClpP mod	TRPML1 blocker	gsp antag
O=c1oc2ccccc2c(NCc2cccc(F)c2)c1[N+](=O)[O-]	12.1	0.5	3.2%	-2.2%	20.2	-29.4%
O=C(OCC(=O)N1CCCCC1)c1cc(=O)[nH]c2ccccc12	·	-0.4	1.4%	-13.1%	3.7	9.8%
O=C(Nc1ccccc1C(=O)NC(Cc1ccccc1)C(=O)O)c1ccccc1 (configuration not stated)	-6.1	-0.5	17.1%	·	23.7	-0.2%
Cc1ccnc(NC(=O)c2cccc(NC(=O)CC3SC(N4CCCCC4)=NC3=O)c2)c1 (configuration not stated)	·	1.2	-27.6%	-1.2%	-12.2	-14.6%
NC(=O)CC(NC(=O)Cc1cccc2ccccc12)c1ccc(NCc2ccc(F)c(F)c2)c([N+](=O)[O-])c1 (configuration not stated)	-0.9	0.2	·	1.2%	13.0	0.0%
Nc1nonc1-c1nc2ccccc2n1CC(=O)Nc1cccc(Cl)c1Cl	·	-0.6	·	3.0%	2.9	·
CCOC(=O)c1cnc2ccc(OCC)cc2c1NCc1ccccc1	2.8	0.9	23.9%	?	22.3	14.1µM*
COc1cccc(NC(=O)Nc2nnc(Cc3ccccc3)s2)c1	-0.8	0.3	-1.2%	0.4%	17.8	0.3%
O=C(Nc1nnc(SCC(=O)N2CCCCC2)s1)c1ccc(F)cc1F	-8.4	1.2	22.5%	-0.3%	-8.1	-23.6%
Cc1ccc(-c2ccc(=O)n(CC(=O)NCc3ccco3)n2)cc1	7.3	0.2	3.7%	-13.1%	24.8	1.3%
Nc1c(N(C(=O)Nc2ccc(Cl)c(Cl)c2)C2CCCC2)c(=O)[nH]c(=O)n1Cc1ccccc1	0.7	-1.6	-23.0%	-3.4%	-6.5	3.9%
NC(=O)C1CCN(C(=O)/C=C/c2ccccc2[N+](=O)[O-])CC1	8.9	·	8.7%	0.5%	·	11.6%
CCOC(=O)CSc1cc(C)nc(NC(C)=O)n1	1.4	-0.5	-8.9%	-0.8%	24.7	6.0%
CCN(CC(=O)Nc1ccccc1C(F)(F)F)C(=O)Cc1ccccc1	1.1	2.2	-2.9%	·	4.8	6.7%
O=C(O)c1ccc(C=C(c2nc3ccccc3s2)c2nc3ccccc3s2)cc1	-3.5	-0.6	-22.5%[15.4 µM]	·	-9.7	?
CC1CC(=O)Nc2ccccc2N1C(=O)Nc1ccccc1 (configuration not stated)	1.8	0.6	1.6%[15.4 µM]	·	11.4	-3.7%
CC(=O)Nc1ccccc1NC(=O)c1ccc(C)cc1C	-2.8	0.0	-0.2%[15.4 µM]	·	9.0	2.0%
COC(=O)CCCC(=O)N1CCCC(C(=O)c2ccc(OC)cc2C)C1 (configuration not stated)	-3.2	0.0	-41.8%[inhibitor]	-1.9%	-6.2	3.5%
COc1ccc(-c2nn(-c3ccccc3)cc2/C=N/NC(=O)c2ccc(Br)o2)cc1	5.4	-0.2	2.1%	31.6µM*	-4.1	?
O=C(Cc1cccc2ccccc12)Nc1c(F)cccc1F	-5.3	0.2	-0.7%	-0.1%	0.3	9.2%
CC(=O)Oc1ccc2nc(-c3cccs3)oc(=O)c2c1	-1.6	2.4	8.9%	-24.8%	3.4	1.1%
O=C(COC(=O)C12CC3CC(CC(O)(C3)C1)C2)Nc1ccc(Cl)c(S(=O)(=O)N2CCOCC2)c1	·	1.2	-1.9%	?	2.1	-6.2%
O=C(Nc1ccc(C(F)(F)F)cc1)c1ccc2nc[nH]c2c1	0.7	-0.1	0.0%	·	-1.6	2.7%
CC1=C(C(=O)N(C)C)CC(CC(=O)NCCCN(C)C)C(=O)N1CCC1=CCCCC1 (configuration not stated)	·	-0.3	5.1%	0.4%	2.0	·
Cc1ccc(S(=O)(=O)N2c3ccccc3CC2C)cc1 (configuration not stated)	1.6	3.4	-27.6%	·	53.9	-16.3%

Reformatted: 6 of the compounds above.
SMILES,Menin MLL FP FL,TRPML1 ag,gsp agonist,ClpP mod,TRPML1 blocker,gsp antag
Nc1nonc1-c1nc2ccccc2n1CC(=O)Nc1cccc(Cl)c1Cl,·,-0.6,·,3.0%,2.9,·
Cc1ccc(-c2ccc(=O)n(CC(=O)NCc3ccco3)n2)cc1,7.3,0.2,3.7%,-13.1%,24.8,1.3%
O=C(Cc1cccc2ccccc12)Nc1c(F)cccc1F,-5.3,0.2,-0.7%,-0.1%,0.3,9.2%
O=c1oc2ccccc2c(NCc2cccc(F)c2)c1[N+](=O)[O-],12.1,0.5,3.2%,-2.2%,20.2,-29.4%
Cc1ccc(S(=O)(=O)N2c3ccccc3CC2C)cc1 (configuration not stated),1.6,3.4,-27.6%,·,53.9,-16.3%
Cc1ccnc(NC(=O)c2cccc(NC(=O)CC3SC(N4CCCCC4)=NC3=O)c2)c1 (configuration not stated),·,1.2,-27.6%,-1.2%,-12.2,-14.6%

Compounds listed so far with two or more sulfur atoms:
SMILES	Menin MLL FP FL	TRPML1 ag	gsp agonist	ClpP mod	TRPML1 blocker	gsp antag
O=C(Nc1nnc(SCC(=O)N2CCCCC2)s1)c1ccc(F)cc1F	-8.4	1.2	22.5%	-0.3%	-8.1	-23.6%
O=C(O)c1ccc(C=C(c2nc3ccccc3s2)c2nc3ccccc3s2)cc1	-3.5	-0.6	-22.5%[15.4 µM]	·	-9.7	?

Going on with the list.
SMILES	Menin MLL FP FL	TRPML1 ag	gsp agonist	ClpP mod	TRPML1 blocker	gsp antag
COCCCn1c(=O)c2sccc2n2c(CCCC(=O)NCc3ccccc3OC)nnc12	-0.2	-0.8	?	-6.2%	-15.5	-1.3%
N#Cc1cnc(SCCc2ccccc2)nc1N	4.1	1.5	14.5%	-5.6%	-4.7	14.6%
COc1cccc(NC(=O)/C(C#N)=C/c2c(C)n(Cc3ccccc3)c3ccccc23)c1	·	1.1	·	-8.0%	-4.1	·
COc1ccc(-c2c(-c3ccc(OCC(=O)NN)cc3O)n[nH]c2C(F)(F)F)cc1	1.6	-0.2	-44.4%[inhibitor]	-7.9%	26.7	4.9%
O=C1Nc2cc(C(=O)NCCCN3CCOCC3)ccc2S/C1=C/c1ccccc1F	·	-0.2	-6.9%	-2.8%	18.6	-0.7%
COc1cccc(SCC(=O)N2CCN(c3ccccc3)CC2)c1	-0.8	-0.8	18.5%[15.4 µM]	·	-4.5	-1.1%
CCC(C)(C)C(=O)Nc1ncc(S(=O)(=O)c2ccc([N+](=O)[O-])cc2)s1	0.8	14.4	-0.8%	-1.3%	-14.2	-1.7%
O=C(Cc1cccc(NC(=O)C2CCN(C(=O)CCc3ccccc3)CC2)c1)Nc1cccc(C(=O)N2CCOCC2)c1	·	-0.9	·	0.5%	44.8	5.4%
Cc1ccc(NC(=O)C2(N(CC(C)C)C(=O)Cn3nnnc3N)CCCCC2)cc1	-0.2	-0.4	-0.2%	-2.6%	-4.3	-12.7%
COc1cc(C2CC(c3c(C)cc(C)[nH]c3=O)=NN2c2ccccc2F)cc(OC)c1OC (configuration not stated)	?	0.4	0.5%[15.4 µM]	0.9%	-4.2	3.0%
COCc1c(C(=O)N/N=C/c2c[nH]c3ccccc23)nnn1-c1nonc1N	0.6	-0.1	3.6%[15.4 µM]	·	-4.6	-24.0%
CCN(CC)S(=O)(=O)c1ccc(N2CCCC2)c(NC(=O)c2ccc(N3CCCC3=O)cc2)c1	·	0.0	-1.3%	-0.5%	7.3	-9.3%
COc1ccccc1CC(NC(C)=O)C(=O)NC1CCN(C(=O)Nc2ccc(F)cc2)CC1 (configuration not stated)	·	5.3	-2.0%	2.0%	15.8	-10.2%
CCOC(=O)c1nnsc1N	0.8	8.0	25.5%	·	11.6	5.0%
CC(C(=O)O/N=C(\N)c1cccnc1)c1ccc([N+](=O)[O-])cc1 (configuration not stated)	2.7	-1.5	-9.7%[15.4 µM]	-3.4%	-14.6	-20.3%
CC(C)(C)[C@@H]1COC(=O)[C@H](Cc2ccc(F)cc2)C/C=C\C[C@@H](CC(=O)N(CCO)Cc2ccccc2)C(=O)N1	·	-0.4	·	0.3%	6.6	-13.2%
COc1ccc(-c2noc(C3CCCN(C(=O)c4ccccc4)C3)n2)cc1 (configuration not stated)	0.9	0.7	?	-1.8%	-16.3	-32.8%
CN(C(=O)COC(=O)C1=COCCO1)c1c(N)n(Cc2ccccc2)c(=O)[nH]c1=O	·	-0.2	-5.7%[15.4 µM]	-5.0%	-1.2	7.5%
O=[N+]([O-])c1cccc(/C=C/c2nc[nH]c2[N+](=O)[O-])c1	0.6	·	23.4%	2.3%	·	-12.2%
CC1CN(CC(O)COc2ccccc2C(C)(C)C)CC(C)O1 (configuration not stated)	2.4	0.7	-35.2%	1.0%	12.1	8.1%
COc1ccc(S(=O)(=O)c2c(Nc3ccccc3F)sc(C(=O)c3cccc(OC)c3)c2N)cc1	·	?	·	-8.8%	-22.1	·
c1ccc(CCNC2=NCCS2)cc1	4.8	-0.1	9.8%[15.4 µM]	·	11.3	14.4%
CN(CC(=O)Nc1ccc(F)c(F)c1F)c1ncnc2sccc12	6.8	-1.0	?	·	13.3	-22.7%
Cc1[nH]c2ccccc2c1/C=C/c1nc2ccccc2c(=O)n1-c1ccc([N+](=O)[O-])cc1	-0.2	-0.4	-21.5%	1.2%	-8.8	4.3%
COc1ccc(S(=O)(=O)Nc2cccc(SC)c2)cc1C(=O)N1CCOCC1	0.8	0.2	2.5%[15.4 µM]	·	8.8	·
O=C(NCCCn1ccnc1)c1nc(Cn2ccc([N+](=O)[O-])n2)no1	3.9	0.1	-1.5%[15.4 µM]	·	-4.6	9.3%
Cc1ccc(C(CC(=O)O)NC(=O)c2ccc(S(=O)(=O)N3CCCC3)cc2)cc1 (configuration not stated)	·	-0.3	-8.5%[15.4 µM]	·	6.4	9.2%
CCOc1ccc2nc3c(cc2c1)CN(CCOC)C(=NCCOC)S3	1.0	3.2	?	?	22.7	?
Cc1ccc(-c2nc3cc(NC(=O)C(C)C)ccc3o2)cc1C	2.5	-0.6	-2.8%	28.2µM*	2.3	-18.3%
COc1cccc(N2CC(C(=O)Nc3nnc(SCCN4CCOCC4)s3)CC2=O)c1 (configuration not stated)	-0.2	0.5	14.5%	-1.9%	-21.1	1.1%

Marked active in gsp antag, of those listed so far:
canonical_smiles | Menin MLL FP FL | gsp agonist | TRPML1 blocker | gsp antag
CCOC(=O)c1cnc2ccc(OCC)cc2c1NCc1ccccc1 | 2.8 | 23.9% | 22.3 | 14.1µM*
